# Source: PubChem (Fisher Drug Discovery Resource Center)
# NPYLR7 ag = mosquito NPYLR7 agonism. AID 1259423. activation, % at 10 µM. 0.15% of 270,000 active. HEK293T NPYLR7/Galpha15, GCaMP6s calcium fluorescence; in the data active = activation above about 40%;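 also: 0% = vehicle and 100% = reference agonist at the receptor; some compounds past the cut are filed as inactive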
# NPYLR7 ag max-min = recorded beside NPYLR7 ag, whose call it bears; activation, %; measured here: Max-Min RFU normalised activation; some inactives read as strong as hits;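 span of the calcium signal over five minutes; 0% = vehicle and 100% = native peptide agonist; compound fluorescence can raise it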
# An asterisk follows results filed as active; & = joins results of further samples.
SMILES | NPYLR7 ag | NPYLR7 ag max-min
CCC(CC)C(=O)Nc1nc2ccc(Cl)cc2s1 | 0.9 | 0.5
CCc1nccn1CCC(=O)N1CCc2onc(-c3ccccc3F)c2C1 | 2.6 | 1.7
FC(F)(F)CCc1ccnc(NC2CCN(Cc3ccccn3)CC2)n1 | 6.0 | 4.9
FC(F)Oc1ccc(-c2n[nH]c(=S)n2N=Cc2ccc3c(c2)OCCO3)cc1 | -1.4 | 0.8
COP(=O)(O)c1c([N+](=O)[O-])cc(C(F)(F)F)cc1[N+](=O)[O-] | -2.5 | -2.2
Cc1cccc(-n2c(C)nnc2SCC(=O)c2ccccc2)c1 | -1.0 | 5.4
Cc1cc(C2CCCN2CC(=O)Nc2ccc(F)c(F)c2)no1 (stereo not given) | -4.6 | -3.5
O=C(NCc1n[nH]c(=S)n1-c1ccc(F)cc1)c1c(F)cccc1Cl | -0.3 | -1.3
CCCCc1ccc(C(=O)N(CC(=O)N2c3ccccc3-n3cccc3C2c2cc(OC)ccc2OC)C2CC2)cc1 (stereo not given) | -4.9 | 1.4
O=C(Nc1ccccc1)c1cc2n(n1)CCN(C(=O)CCN1CCCCO1)C2 | 20.7 | 16.3
CCCN(CC1CCCO1)C(=O)CCc1nnc(CCc2c[nH]c3ccccc23)o1 (stereo not given) | 4.2 | 3.7
CC(C)N(CC(=O)N(CCc1c[nH]c2ccccc12)Cc1ccc(F)cc1)C(=O)/C=C/c1ccc([N+](=O)[O-])cc1 | 19.7 | 17.7
CNC(=O)C1CCC(Cn2c(=O)c3sccc3n(Cc3cc(C)ccc3C)c2=O)CC1 (stereo not given) | -4.2 | 0.8
Cn1ccnc1C(NC(=O)C1CCN(S(=O)(=O)c2ccc(F)c(F)c2)CC1)c1cccc(F)c1 (stereo not given) | -3.6 | -4.2
CCN(Cc1cccc(F)c1)C(=O)Nc1cccnc1OC | 3.5 | 0.0
Cn1ncc(CN2CCN3CCNC(=O)C3C2)c1C1CC1 (stereo not given) | 3.6 | 1.1
O=C(NCC1CCCO1)c1coc(CN(Cc2cccc(C(F)(F)F)c2)Cc2ccc(F)cc2F)n1 (stereo not given) | 19.4 | 33.3
O=C(NCCCn1c(=O)[nH]c2ccccc21)Nc1ccc(Cl)c(C(F)(F)F)c1 | -8.3 | -14.3
Clc1ccc(-c2cn(-c3ccc(Br)cc3)c3[n+]2CCCS3)cc1 | 2.6 | 6.4
O=C(O)C1(Cc2ccc(F)cc2F)CCCN(Cc2ccccn2)C1 (stereo not given) | 5.9 | -1.2
CC(=O)c1sc2nc(-c3ccc(C)cc3)c3c(c2c1N)CCCC3 | -3.2 | -0.2
O=C(c1cnn2c3c(cnc12)CCCCC3)N1CCCCC1 | 6.3 | 0.2
O=C(Nc1ccc(Br)c2ccccc12)Nc1cccc2[nH]c([C@@H]3O[C@H](CO)[C@@H](O)[C@H](O)[C@H]3O)nc12 | 2.6 | 8.0
O=S(=O)(NCCc1cn2c(n1)CCCC2)c1c(Cl)cccc1Cl | -1.1 | -2.2
CCOC(=O)C1(C)CCCN1C(=O)c1cccs1 (stereo not given) | -1.1 | -5.2
O=c1c2c(-c3ccccc3)csc2ncn1Cc1csc(-c2ccc(F)cc2)n1 | 14.4 | 8.6
CC(C)[C@@H]1C[C@@H]2C[C@H](N(CC(=O)O)C(=O)c3cnccn3)C[C@@H]2CO1 | 31.3 | 28.5
O=C(Cn1c(=O)n(-c2ccccc2Cl)c(=O)c2ccccc21)NCc1cccc(C(F)(F)F)c1 | 23.7 | 26.3
Cc1nccc(-c2cccc(NC(=O)c3ccc(Nc4cccc(C(F)(F)F)c4)nc3)c2)n1 | -9.0 | -18.1
COc1cccc(C2=NN(C(=O)CN(C)c3ccccc3)C(c3ccc(F)cc3)C2)c1 (stereo not given) | 9.1 | 7.6

SMILES | NPYLR7 ag | NPYLR7 ag max-min
COc1ccc(C)cc1-n1c(-c2cccs2)nn(CN2CCCC(O)C2)c1=S (stereo not given) | 0.1 | 0.3
CCNC(=O)C1CCN(Cc2cccc(C(=O)Nc3c(C)noc3C)c2)C1 (stereo not given) | 9.5 | 4.7
COc1ccc(-c2cc(=O)n(C)cn2)cc1 | -18.6 | -21.6
COc1ccc(C2SCC(=O)N2CC(=O)NCc2ccccn2)cc1 (stereo not given) | 0.0 | 3.6
O=C(NCc1ccccn1)c1cc2c(ccc3ccccc32)oc1=O | 11.1 | 5.6
CCCCCCCC(=O)N(CC(=O)c1c(C)c(C(=O)OCC)n(CC)c1C)Cc1ccco1 | 2.0 | 3.5
COc1cccc(Cn2cccc2CN(Cc2ccccc2)C(=O)CN(CC(C)C)C(=O)Nc2cccc(C#N)c2)c1 | 4.5 | 5.4
Cc1cc(F)ccc1CC(=O)N1CCC(=O)N(CC2CC2)C(C(C)C)C1 (stereo not given) | -0.6 | -0.2
Cc1ccc(C2(C(F)(F)F)N=C3Sc4cc(S(C)(=O)=O)ccc4N3C(=O)N2)cc1 (stereo not given) | 1.8 | 1.1
CN(C)C1(CNC(=S)NC2CC3CCC2C3)CCCCC1 (stereo not given) | -0.3 | -1.6
FC(F)(F)c1ccnc(N(CC2CCCCC2)C2CC2)n1 | 19.4 | 18.5
CCN(CC)c1onc(-c2ccccc2)c1CN(CCOC)C(=O)c1ccc(F)cc1 | 14.4 | 13.6
Cc1cc(C2CCCN2C(=O)c2nn(-c3cccc(F)c3)ccc2=O)on1 (stereo not given) | 2.0 | 0.7
CCOCCCn1c(C)cn2c3c(=O)n(CCCc4ccccc4)c(=O)n(C)c3nc12 | 5.8 | 5.2
CCc1ccccc1NC(=O)CSc1nccn2nc(-c3ccccc3)cc12 | -4.1 | -6.0
Cc1cc(C)n(CC(C)NCC(=O)NC(C)C)n1 (stereo not given) | 4.3 | 7.8
CCOC(=O)CNC(=O)N1CCCC(C(=O)c2ccc(-c3ccccc3)c(F)c2)C1 (stereo not given) | 0.7 | -1.0
CC(=O)Cn1cnc2c(nnn2-c2cc(C)cc(C)c2)c1=O | -5.0 | -8.0
COc1cccc(C(NCc2ccccc2F)P(=O)(O)O)c1 (stereo not given) | 0.7 | 1.4
Cc1ccc(C(NC(=O)c2sc3ncn(C)c(=O)c3c2C)c2cccnc2)c(C)c1 (stereo not given) | 0.3 | -1.4
O=C(NCc1c(F)cccc1F)c1cncn1-c1cccc(-c2ccccc2C(F)(F)F)c1 | 10.9 | 3.9
COc1ccc(-c2nc3cccc(C)n3c2NC2CCCCC2)cc1OC | 1.2&-14.5 | 9.9&-8.0
CC(C)C1Cc2c(sc3nc(-c4ccccc4)n4c(=S)[nH]nc4c23)CO1 (stereo not given) | 3.6 | 0.1
CCN(CC)C(=O)CN(c1cccc([N+](=O)[O-])c1)S(=O)(=O)c1ccccc1 | -4.8 | -10.4
O=C(Nc1ccc(N2CCCCC2)nc1)c1n[nH]c(=O)c2ccccc12 | 2.8 | 2.1
CCCC1CCC(c2ccc(C(=O)Oc3cccc4cccnc34)cc2)CC1 (stereo not given) | -4.7 | -9.8
CCS(=O)(=O)CC(=O)N1CCN(CC(C)(C)O)CC1 | 1.6 | 1.1
CN1CCN(Cc2cn(-c3ccccc3)nc2-c2ccncc2)CC1C(=O)O (stereo not given) | 20.2 | 14.1
COC(=O)C1=C(C)NC2=C(C(=O)CC(C)(C)C2)C1c1ccc(C(C)(C)C)cc1 (stereo not given) | -6.2 | -10.8
Cc1nc(-n2ccc3nc4ccn(CCc5ccccc5)c(=O)c4cc3c2=O)n[nH]1 | 3.6 | 4.5

SMILES | NPYLR7 ag | NPYLR7 ag max-min
CC1Sc2ccc(C#N)cc2N(Cc2cccc(F)c2)C1=O (stereo not given) | -6.2 | -7.7
CCC(Nc1nccc(CCC(F)(F)F)n1)c1ccnn1C (stereo not given) | 23.8 | 7.3
Cc1ccccc1Oc1ncccc1CNC(=O)[C@@H]1C[C@H]1c1ccccc1 | 0.2 | -3.1
CCN(Cc1cccc(OC)c1)C(=O)c1c(O)cccc1O | -4.8 | -8.7
O=C(NCCCn1cccn1)OCCSc1ccc(C(F)(F)F)cn1 | -0.7 | 0.0
Cc1ccc(-c2csc(-n3[nH]c(C)c(N=Nc4c(C)cc(C)cc4C)c3=O)n2)cc1 | 0.2 | -4.4
O=C(Cc1ccccc1)NC1CCN(c2ccccc2C(=O)N2CCc3ccccc3C2)CC1 | 0.8 | 8.5
COc1cc(NC(=O)CN2CCCC2c2ccc3c(c2)OCCCO3)cc(OC)c1OC (stereo not given) | -0.6 | 1.5
Cc1ccc(-c2nc(NC(C)c3nn[nH]n3)ncc2-c2ccc(N)nc2)cc1 (stereo not given) | 17.3 | 12.2
CCOC(=O)Cn1c(=O)c2c(nc3n2CCCN3c2ccc(C)cc2)n(C)c1=O | 7.0 | 11.0
CCCC(C)COC(=O)C1=C(C)NC(=O)NC1c1ccc(O)c([N+](=O)[O-])c1 (stereo not given) | -7.0 | -0.4
C=CCNC(=S)NN=C1CCS(=O)(=O)c2ccccc21 | -2.6 | 34.8
C=CCn1c(O)c(N=NC(=O)COc2c(C)cc(Br)cc2C)c2ccccc21 | 4.4 | 11.1
Cc1csc(Sc2ccc(NC(=O)c3cnn(C)c3C)cc2)n1 | -2.9 | -2.4
Cc1nn(-c2ccccc2)c(C)c1C(=O)N1CCN(S(=O)(=O)c2c(Cl)cccc2Cl)CC1 | -1.6 | 10.5
CCNc1nnc(SC2CC(C)OC2=O)s1 (stereo not given) | 7.7 | 0.5
CC1(C)C(c2ccccn2)=[N+]([O-])C(C)(C)N1O | -14.4&-7.2 | -20.2&-16.5
COc1cc(OC)c2cc(C=O)cnc2c1 | 8.8 | 4.1
C[C@@H]1CN(C(=O)Nc2ccc(Cl)c(C(F)(F)F)c2)C[C@H](C)O1 | -12.1 | -19.3
Cc1cccc(OCC(=O)N=Nc2c(O)[nH]c3c(Br)cc(F)cc23)c1 | 1.4 | -0.9
CNC(=O)c1cccc(OCCC(C)C)c1 | -3.3 | -3.4
CCOC(=O)c1cc(-c2ccc(N3CCN(C(=O)c4ccc(NC(C)=O)cc4)CC3)cc2)n(-c2ccccc2Cl)n1 | 3.4 | -1.6
Cc1cc(C)c(S(=O)(=O)n2cccn2)c(C)c1 | -1.4 | 37.0
COc1cccc(OC)c1C(=O)N1CCN(C(C)c2ccccc2)CC1 (stereo not given) | 29.3 | 21.2
COc1cc(C)ccc1S(=O)(=O)NCCCn1ncccc1=O | -15.7 | -20.7
CC(=O)c1c(C)cc(C)c(CN2C[C@H](N)C[C@H]2C(=O)NC(C)C)c1C | 20.0 | 11.3
Clc1cccc(N2CCN(c3nnc4n3CCCCC4)CC2)c1 | -0.1 | -0.8
O=C(Nc1ccc(C2SCC(=O)N2c2ccc(F)cc2)cc1)Nc1cccc(C(F)(F)F)c1 (stereo not given) | 5.3 | 16.2
Cn1c(=O)c2c(-c3ccccc3Cl)c(Nc3ccccc3)oc2n(C)c1=O | -6.6 | -8.6
CC(c1ccncn1)N(C)C(=O)CCCn1nnnc1CN1CCc2ccccc2C1 (stereo not given) | -4.9 | -7.3

# An excerpt from above in order of SMILES length, smallest number first:
SMILES | NPYLR7 ag | NPYLR7 ag max-min
C=CCNC(=S)NN=C1CCS(=O)(=O)c2ccccc21 | -2.6 | 34.8
Cc1cccc(OCC(=O)N=Nc2c(O)[nH]c3c(Br)cc(F)cc23)c1 | 1.4 | -0.9
C=CCn1c(O)c(N=NC(=O)COc2c(C)cc(Br)cc2C)c2ccccc21 | 4.4 | 11.1
CCCC(C)COC(=O)C1=C(C)NC(=O)NC1c1ccc(O)c([N+](=O)[O-])c1 (stereo not given) | -7.0 | -0.4

# Next records.
SMILES | NPYLR7 ag | NPYLR7 ag max-min
CC(C)c1[nH]n(-c2ccc(Cl)cc2)c(=O)c1C1=C(N2CCN(C)CC2)C(=O)N(c2ccccc2F)C1=O | 1.3&-6.2 | 3.6&-1.5
CN(CCc1ccccn1)Cc1cnc2c(-c3ccccc3)cnn2c1 | 20.0 | 8.0
COc1cccc(-c2nc3ccccn3c2NC(C)(C)CC(C)(C)C)c1 | 4.0 | 1.5
CC(=O)c1ccc(CC2SC(N)=NC2=O)cc1 (stereo not given) | 3.5 | -1.6
CCC(C)(C)c1nnc(NC(=O)NCc2ccco2)s1 | 3.3 | -4.4
Cc1ccc(C)c(C(=O)NCc2cc(C)on2)c1 | 0.6 | -0.1
Cc1ccc(CN2CCN(Cc3cnc(N4CCOCC4)s3)CC2CCO)cc1 (stereo not given) | 30.0 | 13.3
CC(=O)N1CCC[C@H]1C(=O)N1CCC(CCC(=O)Nc2cccc(C)c2)CC1 | 1.0&0.2 | 0.5&-2.6
O=C(COc1ccc(Cl)cc1)NC1CCN(c2ccccc2C(=O)N2CCc3ccccc3C2)CC1 | -7.9 | 2.1
COc1ccc(C(CN2CCN(C)CC2)NC(=O)c2ccc3c(c2)CCC3)cc1 (stereo not given) | 1.8 | -1.5
Cn1c(-c2cccnc2)cc2cnc(Nc3ccc4c(c3)OCCO4)cc21 | -15.4 | -15.0
Cc1c(C(=O)Nc2cccc(Oc3ccccc3)c2)sc(=O)n1CCc1ccccc1 | 15.4 | 10.8
CCOC(=O)C1(C/C=C/c2ccccc2)CCCN(C(=O)c2ccc3c(c2)OCO3)C1 (stereo not given) | 18.1 | 2.1
CCNC(=O)C1CCCN(C(=O)NCc2ccnc(N3CCCCC3)c2)C1 (stereo not given) | 7.1 | 2.4
CC(C)N(c1ccccc1)c1ccc(NC(=O)C2CCC2)cc1 | -9.9 | -11.1
COc1ccc(C(=O)NCCc2cc3c(OC)ccc(OC)c3[nH]c2=O)cc1 | 1.0 | 42.7
COc1ccc(C(=O)Nc2c(N)nc(SCC(=O)Nc3ccccc3)[nH]c2=O)cc1 | -6.2 | -0.4

# In a second layout: entries from further up
> CCOC(=O)C1(C/C=C/c2ccccc2)CCCN(C(=O)c2ccc3c(c2)OCO3)C1 (stereo not given)
- NPYLR7 ag: 18.1
- NPYLR7 ag max-min: 2.1
> CCNC(=O)C1CCCN(C(=O)NCc2ccnc(N3CCCCC3)c2)C1 (stereo not given)
- NPYLR7 ag: 7.1
- NPYLR7 ag max-min: 2.4
> CC(C)N(c1ccccc1)c1ccc(NC(=O)C2CCC2)cc1
- NPYLR7 ag: -9.9
- NPYLR7 ag max-min: -11.1

# Some of the compounds tested, so the mix of outcomes need not match the whole.
